Screening results deposited in PubChem by National Center for Advancing Translational Sciences (NCATS).
Cruzain inh noDet – inhibitors of Trypanosoma cruzi cruzain without detergent | purified cruzain, Z-FR-AMC fluorescence, no detergent | Potency, µM, for the others: max response, negative = inhibition, hits mostly inhibitors | 200,000 tested, 2.3% active;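 also: plate controls were enzyme without inhibitor for no effect and buffer without enzyme for full effect; nearly all actives have a fitted effect of over 40% in size; top concentration of the series not given in the record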
Target sequence (P25779 123-467 limits assumed): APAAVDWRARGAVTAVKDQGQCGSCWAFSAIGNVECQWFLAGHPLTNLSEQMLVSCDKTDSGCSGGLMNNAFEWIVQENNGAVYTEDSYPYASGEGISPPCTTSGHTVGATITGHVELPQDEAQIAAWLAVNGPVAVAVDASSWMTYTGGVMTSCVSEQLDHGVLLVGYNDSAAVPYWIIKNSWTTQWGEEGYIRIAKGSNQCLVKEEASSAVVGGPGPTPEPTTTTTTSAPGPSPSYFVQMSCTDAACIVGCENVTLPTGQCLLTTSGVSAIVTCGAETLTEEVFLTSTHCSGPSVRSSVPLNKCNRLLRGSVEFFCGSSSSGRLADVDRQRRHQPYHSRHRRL
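Detergent-free condition (0.00005% Triton X-100) in acetate buffer pH 5.5 with DTT. 1.5 nM enzyme and compound were pre-mixed 15 min, then 2 uM Z-FR-AMC substrate added; reaction progress from fluorescence change between first and third reads (60 s).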
2A StopGo – lowers the luciferase signal of an FMDV 2A StopGo reporter; 410,000 tested, 1.2% active; Potency, µM (highest dose often 57.9 µM), inactives show at the highest dose signal change, negative = less light; human cells with a luciferase reporter of 2A StopGo recoding; control for the full effect not named in the record; active = well fitted falling curve with a large enough effect; inconclusive = small, poorly fitted or top-dose-only effect; inactive = no such curve, though single readings can be large or run the other way; tested in HEK293T cells; also: % is scaled to controls: 0 for no effect and ±100 for the full control effect; nearly all actives have a fitted effect of over 45% in size; luciferase light after 4 h
RE007 growth inh – less growth of the S. pombe RE007 Vpr strain | S. pombe RE007 Vpr strain, BacTiter-Glo ATP luminescence, 24 h; control for the full effect not named in the record | Potency, µM (titrated, usually from 92.2 µM), for inactives: at the top dose activity change, negative = less growth | 360,000 tested, 0.21% active; active = well fitted falling curve with a large enough effect; inconclusive = small, poorly fitted or top-dose-only effect; inactive = no such curve, though single readings can be large or run the other way;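 also: % is scaled to controls: 0 for no effect and ±100 for the full control effect; nearly all actives have a fitted effect of over 50% in size; the assay follows cell death caused by Vpr and the record does not say whether a fall means rescue or toxicity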
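Fission yeast RE007 carrying one integrated HIV-1 vpr copy, seeded at OD 0.01 in PMG+AL medium with 23 nL pinned compound. Grown 24 h at 30 degrees; viability read by BacTiter-Glo luminescence after 5 min.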
Cruzain Triton – cruzain (T. cruzi) inhibition with detergent. P25779. purified cruzain, Z-FR-AMC fluorescence, 0.01% Triton. Potency, µM, inactives show max response, negative = inhibition, hits mostly inhibitors. 200,000 tested, 0.43% active. AID 1478;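 also: plate controls were neutral wells for no effect and buffer without enzyme for full effect; nearly all actives have a fitted effect of over 40% in size; top concentration of the series not given in the record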
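Cruzain (1.5 nM) preincubated 15 min at RT with compound in 100 mM sodium acetate pH 5.5, 5 mM DTT, 0.01% Triton X-100. Reaction started with 2 uM Z-FR-AMC; AMC fluorescence (ex 360/em 450 nm) change over 60 s gave rate.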
NS1 inh – influenza NS1 inhibition; S. cerevisiae slowed by influenza A NS1, growth recovery by OD600; Potency, µM (highest dose often 46.1 µM), for the others: top-dose activity, positive = more growth; 270,000 tested, 0.4% active; active means well fitted rising curve with a large enough effect; inconclusive means small, poorly fitted or top-dose-only effect; inactive means no such curve, though single readings can be large or run the other way; also: nearly all actives have a fitted effect of over 50% in size
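OD600 was taken as the measure of yeast growth restored by compound in an NS1-expressing S. cerevisiae strain. Cells had been washed out of glucose medium and diluted 1:100 into galactose -URA medium, pH 6.0.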
Lassa entry inh – Lassa virus entry inhibition; Potency, µM (series often up to 37.9 µM), without a hit: at the highest dose activity change, negative = inhibition, actives largely listed as inhibitors; 300,000 tested, 1.2% active; Lassa virus pseudotype entry inhibition, cell reporter; control for the full effect not named in the record; active means well fitted inhibition curve with a large enough effect; inconclusive means small, poorly fitted or top-dose-only effect, or effect the other way; inactive means flat fitted curve, though single readings scatter; tested in HEK293 cells; also: % is scaled to controls: 0 for no effect and ±100 for the full control effect; nearly all actives have a fitted effect of over 50% in size; luciferase read-out
SARS PLpro yeast – blocks SARS-CoV papain-like protease in a yeast assay | S. cerevisiae expressing SARS-CoV PLpro, growth rescue; control for the full effect not named in the record | 330,000 tested, 0.19% active | AID 485353 | Potency, µM (highest dose often 32.9 µM), inactives show top-dose activity, positive = growth rescue; active means well fitted rising curve with a large enough effect; inconclusive means small, poorly fitted or top-dose-only effect; inactive means no such curve, though single readings can be large or run the other way; also: 0% is about no effect; nearly all actives have a fitted effect of over 55% in size; growth read by luminescence after 48 h
MARV entry inh – blocks Marburg virus binding to or entry into cells. Potency, µM (series often up to 37.8 µM), without a hit: at the highest dose activity change, negative = inhibition, usual class: inhibitors. Marburg virus pseudotyped entry inhibition, cell reporter; control for the full effect not named in the record; about a third of the inactives were read at about 46 µM. AID 540276. 300,000 tested, 1.8% active; active = well fitted inhibition curve with a large enough effect; inconclusive = small, poorly fitted or top-dose-only effect, or effect the other way; inactive = flat fitted curve, though single readings scatter; tested in HEK293 cells; about a fifth of its hits are not listed in these tables; also: % is scaled to controls: 0 for no effect and ±100 for the full control effect; luciferase read-out
* = called active by the depositor; ? = inconclusive; . = no result given; & = joins results of further samples; [ ] = dose if it differs, or a comment. Unless noted, calls follow the shape of the dose curve; as a rule, active = well fitted curve in the direction sought with a large enough effect; inconclusive = small, poorly fitted or top-dose-only effect, or another doubt; inactive = no such curve, though single readings can be large; an effect the other way counts as inactive or inconclusive. Potency is read from the fitted curve at half-maximal effect.

item	smiles	Cruzain inh noDet	2A StopGo	RE007 growth inh	Cruzain Triton	NS1 inh	Lassa entry inh	SARS PLpro yeast	MARV entry inh
1	Cc1oc2ccc(O)cc2c1C(=O)c1ccc([N+](=O)[O-])cc1	3.1%	35.5µM*	11.6%	-8.2%	-2.0%	-11.1%	-58.0%	-9.7%
2	COCCn1c(C)nnc1SCC(=O)Nc1ccccc1[N+](=O)[O-]	.	-10.9%	-5.7%	.	2.2%	.	0.1%	.
3	Cn1c(=O)c2[nH]c(NN=Cc3ccccc3)nc2n(C)c1=O	.	-19.9%	3.2%	.	.	-19.7%[46.1 µM]	.	?
4	COc1ccc(-n2cc(CNCCc3nc(C)cc(C)n3)c(-c3ccccc3Cl)n2)cc1	.	-22.0%	-27.8%	.	-0.3%	?	0.9%	?
5	COc1ccc(NC(=O)N[C@@H](CCSC)C(=O)O)cc1OC	.	0.4%	9.3%	.	1.0%	-0.1%	1.5%	15.4%
6	COc1ccc(/C=N/N=C2/SCC(=O)N2Cc2ccccc2)cc1	.	39.9%[activator]	-4.0%	.	2.1%	?	-0.8%	?
7	N#CCNC(=O)c1cccn1-c1ncc(C(F)(F)F)cc1Cl	.	-3.2%	-15.2%	.	.	-22.2%[46.1 µM]	0.5%	-3.7%[46.1 µM]
8	O=C(c1ccccc1F)c1cc2c(cc1[N+](=O)[O-])OCCO2	.	7.3%	-5.5%	.	5.9%	-3.8%	-8.7%	10.3%
9	CC(C)(C)C(=O)NCCc1nc2ccccc2n1CCCCOc1ccc(Cl)cc1	?	-15.7%	.	-12.2%	.	?	.	?
10	CCCS(=O)(=O)N1CCC(C(=O)NCCN(CC)c2ccccc2)CC1	12.4%	-2.9%	11.0%	0.2%	-2.6%	0.2%	0.1%	21.8%
11	COc1ccc([C@H]2[C@H](C(=O)OC(C)(C)C)N3N=Cc4ccccc4C3C23C(=O)c2ccccc2C3=O)c(OC)c1 (some centres undefined)	?	33.8%[activator]	13.1%	-6.2%	22.9%	-11.0%	16.6%	?
12	Cc1nn(-c2ccccc2)c(N2CCCC2)c1/C=N/NC(=S)Nc1ccccc1F	?	12.8%	-15.2%	-8.6%	26.3%	?	-2.3%	?
13	O=C(Cc1ccccc1)N/N=C/c1ccccc1Cl	-11.3%	51.5%[activator]	0.5%	-5.5%	-32.9%	1.5%	-3.6%	?
14	Cc1ccc(/C=N/n2c(-c3cccs3)n[nH]c2=S)cc1	-8.1%	-30.0%	-2.8%	-2.2%	-33.9%	-10.9%	-1.0%	?
15	COc1ccc(Cl)cc1NC(=O)COC(=O)c1ccc(Br)o1	.	0.0%	0.9%	.	.	11.9%[46.1 µM]	0.3%	4.5%[46.1 µM]
16	CCc1ccc(C(=O)NC(=S)NCc2cccnc2)cc1	.	9.9%	6.3%	.	-10.6%	.	1.0%	.
17	CCNC(=O)CSc1nc(-c2ccccc2)cs1	.	46.4%[activator]	-14.5%	.	.	16.7%	2.4%	18.0%[46.1 µM]
18	COC(=O)c1sccc1NC(=O)CC1C(=O)NCCN1C(=O)Nc1ccc(OCc2ccccc2)cc1 (centres undefined)	.	4.4%	-3.6%	.	11.6%	.	-3.6%	.
19	CCOC(=O)C1CCN(C(=O)Nc2ccc(OC(F)(F)F)cc2)CC1	.	4.7%	-11.2%	.	5.0%	-3.7%	0.2%	9.4%[14.2 µM]
20	CN(C)CCCNc1oc(-c2cccc(Cl)c2)nc1C#N	-0.1%	-10.2%	10.5%	-15.8%	1.7%	19.7%	2.3%	?
21	CN(c1ccccc1)S(=O)(=O)c1nnc(NC(=O)COc2ccccc2)s1	0.3%	-9.8%&0.8%	-3.4%	-1.3%	19.9%	-14.8%[46.1 µM]	-4.3%	.
22	Cc1cccc(C(=O)NNC(=O)c2ccco2)c1	8.1%	13.9%	-7.6%	-3.1%	-0.3%	19.0%	11.5%	23.6%
23	CCCN(CCC)CCCNC(=O)c1cc2cc3ccc(OC)cc3nc2o1	?	-7.3%	-11.9%	25.1µM*	-2.4%	-24.0%	2.6%	?
24	Cc1noc(C)c1CN(C(=S)NC(C)C)c1ccccc1	15.5%	19.9%	-13.2%	-1.4%	8.4%	4.8%	16.7%	-4.3%
25	CCc1noc(C)c1C(=O)N(C)CC(=O)Nc1ccc(F)c(F)c1F	.	-6.1%	-18.3%	.	.	1.0%	0.8%	3.2%
26	FC(F)(F)COc1ccc(-c2nnc(SCc3ccccc3)o2)cn1	.	41.8%[activator]	-4.1%	.	1.9%	18.1%	0.2%	-2.2%
27	O=C(NC1CCCc2ccccc21)c1ccc2c(c1)OCO2 (centres undefined)	.	-10.4%	-21.8%	.	-2.7%	21.1%[46.1 µM]	-1.4%	-16.6%[46.1 µM]
28	Cc1cc(N2CCOCC2)n2nc(-c3cccc(F)c3)cc2n1	11.7%	-14.5%	-10.4%	0.6%	-3.1%	2.3%	3.4%	-22.6%
29	N#CCSc1nnc(-c2sc3ccccc3c2Cl)o1	-13.4%	2.7%	?	-11.3%	-12.8%	?	-8.6%	?
30	CCC(C)N(C(=O)CSc1nnc2ccccn12)C1CCS(=O)(=O)C1 (centres undefined)	.	-10.0%	9.5%	.	.	-23.1%	-0.2%	-24.7%[46.1 µM]
31	Cc1ccc(-c2ccnc3[nH]n(-c4ccccc4)c(=O)c23)cc1	.	20.5%	4.4%	.	10.6%	.	-6.1%	.
32	CCOc1ccc(C2=NNC(c3cccs3)=Nc3ccc(OC)cc32)cc1OCC	-0.6%	-22.2%	22.4%	-5.8%	22.7%	-18.2%	4.8%	-17.0%[46.1 µM]
33	COc1ccc(CCNCC(=O)Nc2ccc(OC(F)(F)F)cc2)cc1OC	.	-12.5%	12.7%	.	11.5%	.	7.8%	.
34	COc1cccc(N2CCN(C(=O)c3cc4c(s3)-c3c(C)cccc3OC4)CC2)c1	?	?	.	-6.8%	.	.	.	1.3%[46.1 µM]
35	COC(=O)c1c(NC(=O)C(Cl)Cl)sc2c1C(C(=O)OC)CC2 (centres undefined)	.	?	-13.1%	.	-7.0%	.	0.0%	.
36	COc1ccc(CCC(C)N2CCc3ccccc3C2)cc1 (centres undefined)	.	2.7%	0.8%	.	15.5%	.	0.0%	.
37	Cc1ccccc1CN(C)CC(=O)Nc1ccccc1-c1ccccc1	7.0%	-24.8%	2.6%	-6.8%	-17.3%	8.6%	-27.5%	?
38	O=C(CCC1COc2ccccc2O1)Nc1ncccc1O (centres undefined)	0.7%	-23.3%	-0.9%	-1.1%	-2.8%	-0.8%	-2.5%	?
39	Cc1[nH]c(=O)[nH]c(=O)c1/C=N/NC(=O)[C@@H](NC(=O)OC(C)(C)C)C(C)C	-0.2%	0.0%	4.3%	-0.1%	2.7%	0.3%	-7.0%	-14.6%
40	CC(C)C[C@H]1CN=C(Nc2ccccc2)N1CC1CCC1	.	-17.3%	7.2%	.	-13.2%	.	-4.6%	.
41	O=C(Nc1ccc(S(=O)(=O)N(Cc2ccccc2)c2ccccc2)cc1)c1ccccc1F	4.9%	-16.9%	.	-1.8%	.	0.9%[46.1 µM]	.	?
42	COC(=O)c1c(C)[nH]c(C(=O)/C=C/c2cccc(Cl)c2)c1C	?	53.7%[activator]	-8.2%	-1.5%	2.3%	9.9%	5.2%	4.7%
43	O=C(Cn1nc(Cc2cccnc2)c2ccccc2c1=O)NCc1ccc2c(c1)OCO2	-1.8%	-21.7%	5.8%	1.7%	-10.2%	.	4.1%	.
44	CCC1(CC)NC(=O)N(CC(=O)N2CCc3ccccc32)C1=O	.	2.9%	-10.6%	.	.	3.1%[46.1 µM]	2.0%	?
45	CCc1nnc(NC(=O)c2ccc3nc(CC)c(CC)nc3c2)s1	.	23.0%	-10.0%	.	.	-5.1%	-0.8%	18.0%[46.1 µM]
46	COc1ccc(-c2nnc(SCC(=O)c3cccs3)n2-c2ccc(Cl)cc2)cc1	?	0.0%	-4.0%	-3.2%	12.9%	?	2.4%	?
47	COc1ccc(C2(CNC(C)=O)CCCC2)cc1OC	5.4%	-7.5%	0.6%	-2.4%	-1.6%	0.3%	8.3%	-0.6%
48	COc1ccc(O)c(C(=O)c2cc(C#N)c(=O)n(CCN3CCOCC3)c2)c1	-11.9%	8.3%	-3.9%	0.4%	-2.4%	17.5%	3.8%	7.7%
49	Cc1c(/C=N/N=C2\CCC3C4CCc5cc(O)ccc5C4CCC23C)cnn1C (centres undefined)	-7.1%	?	6.9%	-0.9%	-3.3%	21.0%	-6.2%	11.0%
50	CC(=O)N1N=C2C3CCN(CC3)C2C1c1cccc2ccccc12 (centres undefined)	-5.7%	-2.1%	-0.7%	1.8%	29.8%	1.9%	-15.4%	0.4%
51	COc1cccc(-n2c(C)nc3c(cnn3-c3ccc(C)c(C)c3)c2=O)c1	9.6%	4.0%	.	-9.1%	.	0.8%[46.1 µM]	.	?
52	Cc1ccccc1N1CC(C(=O)Nc2ccc(S(=O)(=O)N3CCCCC3)cc2)CC1=O (centres undefined)	.	-27.3%	-6.9%	.	-5.6%	-16.7%	0.2%	-8.6%[46.1 µM]

For convenience, 4 of the compounds above:
item	smiles	Cruzain inh noDet	2A StopGo	RE007 growth inh	Cruzain Triton	NS1 inh	Lassa entry inh	SARS PLpro yeast	MARV entry inh
41	O=C(Nc1ccc(S(=O)(=O)N(Cc2ccccc2)c2ccccc2)cc1)c1ccccc1F	4.9%	-16.9%	.	-1.8%	.	0.9%[46.1 µM]	.	?
42	COC(=O)c1c(C)[nH]c(C(=O)/C=C/c2cccc(Cl)c2)c1C	?	53.7%[activator]	-8.2%	-1.5%	2.3%	9.9%	5.2%	4.7%
43	O=C(Cn1nc(Cc2cccnc2)c2ccccc2c1=O)NCc1ccc2c(c1)OCO2	-1.8%	-21.7%	5.8%	1.7%	-10.2%	.	4.1%	.
44	CCC1(CC)NC(=O)N(CC(=O)N2CCc3ccccc32)C1=O	.	2.9%	-10.6%	.	.	3.1%[46.1 µM]	2.0%	?
